Bioassay records from PubChem BioAssay.
Calb FLC – affects C. albicans growth with fluconazole | C. albicans CaCi-2 (fluconazole-resistant clinical isolate) + fluconazole, Alamar Blue growth, 48 h | growth inhibition, % (concentration not given with the values) | 300,000 compounds, 0.57% hits | AID 1979;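 active means most replicates above 75%; inconclusive means exactly half above 75%; inactive means most below 75%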;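 further: all wells also contain fluconazole at 8 µg/ml as a sub-toxic cotreatment; 0% = median of DMSO wells and 100% = median of geldanamycin control wells; wells of about 8 µL received 7.5 nL stock; the first replicate is given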
Beta2AR agonist – agonists of human beta-2 adrenergic receptor inducing internalization; P07550; Am2.2-beta2AR cells, FAP receptor internalization, flow cytometry; reference of the scale not given here; response, % (no concentration beside the values); 340,000 compounds, 0.43% hits;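 active means response above a set limit, near 3 SD of response in nonfluorescent compounds, cut at about 42% in these data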;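 further: stock transfer was 100 nL into about 11 µL; a reference agonist was the positive control; negative values mostly stem from fluorescent compounds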
Target sequence (P07550 whole entry, looked up): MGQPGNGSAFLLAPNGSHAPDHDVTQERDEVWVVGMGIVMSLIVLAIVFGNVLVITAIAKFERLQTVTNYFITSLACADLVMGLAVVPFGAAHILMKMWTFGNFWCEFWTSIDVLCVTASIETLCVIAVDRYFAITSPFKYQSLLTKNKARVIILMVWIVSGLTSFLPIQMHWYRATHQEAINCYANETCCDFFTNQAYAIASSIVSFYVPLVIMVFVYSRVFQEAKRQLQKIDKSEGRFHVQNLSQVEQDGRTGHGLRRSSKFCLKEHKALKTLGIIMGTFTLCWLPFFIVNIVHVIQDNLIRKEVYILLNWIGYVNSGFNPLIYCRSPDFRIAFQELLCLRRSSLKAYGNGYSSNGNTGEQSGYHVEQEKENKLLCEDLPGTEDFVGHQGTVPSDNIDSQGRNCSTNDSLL
RanGTP-Impb inh – inhibitors of RanGTP-importin-beta interaction, primary screen, biochemical, FRET, CFP-Ran, YFP-importin-beta, homogeneous; inhibition, % (test concentration not listed); 300,000 compounds, 1.1% hits; AID 2216; cell-free CFP-Ran/YFP-importin-beta FRET ratio;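 active means most replicates above 15%; inconclusive means exactly half above 15%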;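 further: 0% = DMSO wells and 100% = Ran loaded with GDP instead of GTP; wells of about 40 µL received 100 nL stock; the first replicate is given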
LANA-H2B inh – blocks KSHV LANA binding to histone H2A/H2B; 320,000 compounds, 0.6% hits; inhibition, % (no concentration beside the values); cell-free LANA-H2A/H2B peptide, fluorescence polarization; Q9QR71; AID 2629; in the data active means inhibition mostly above about 10%, no sharp cut-off; inactive means mostly below about 6.7%;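 further: stock transfer was 7.5 nL into about 10 µL; 0% = median of vehicle wells and 100% = median of positive control wells; one replicate is shown; the record names a cut of 25% in any replicate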
Beta cell apopt – beta cell apoptosis inhibition | INS-1E cytokine-induced death, ATP luminescence, 48 h; percent of positive-control rescue, neutral wells zero | protection from apoptosis, % (no concentration beside the values) | 300,000 compounds, 0.8% hits | AID 435005;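 active means all replicates at 75% or more, or half of them and the mean; inconclusive means half reach 75% but not the mean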;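 further: 0% = cytokine-treated negative control wells and 100% = positive control rescue; higher means more ATP so stronger rescue from cytokine killing; wells of about 40 µL received 100 nL stock; the first replicate is given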
T cruzi repl – blocks replication of Trypanosoma cruzi. T. cruzi beta-gal in NIH3T3, luminescence, 90 h. inhibition, % (no concentration beside the values). 300,000 compounds, 1.4% hits;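 active means mean inhibition across valid replicates above about 55%, limit read from the data; inconclusive means mean below that limit but half or more replicates reach it; inactive means mean below it, under half of replicates reach it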;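 further: signal also drops with host cell toxicity which is not excluded here; 0% = plate median of DMSO wells and 100% = zero luminescence signal; higher percent means less beta-gal luminescence so fewer parasites; stock transfer was 50 nL into about 50 µL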
UCH37 DUB inh – human UCH37 deubiquitinating enzyme inhibition | purified proteasome/UCH37, Ub-AMC cleavage fluorescence | inhibition, % (test concentration not listed) | 330,000 compounds, 0.33% hits | AID 588478;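 active means mean of two replicates above 20%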;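 further: 0% = compound-free wells with enzyme and 100% = wells lacking proteasome; stock transfer was 100 nL into about 20 µL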
Target sequence (Q9Y5K5 whole entry, looked up): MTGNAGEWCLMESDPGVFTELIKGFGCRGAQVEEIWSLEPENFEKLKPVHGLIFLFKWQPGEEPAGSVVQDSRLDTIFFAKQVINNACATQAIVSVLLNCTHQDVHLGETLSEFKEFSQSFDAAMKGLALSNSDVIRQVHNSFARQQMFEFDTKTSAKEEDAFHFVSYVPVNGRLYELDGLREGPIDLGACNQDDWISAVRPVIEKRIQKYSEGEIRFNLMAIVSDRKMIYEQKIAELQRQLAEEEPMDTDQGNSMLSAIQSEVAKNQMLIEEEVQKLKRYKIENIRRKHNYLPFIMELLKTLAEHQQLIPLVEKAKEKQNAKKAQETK
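Material: human UCH37 enzyme supplied as purified proteasome complex / Amount: 0.15 nM proteasome as dispensed / Buffer or medium: pH 7.4 Tris-HCl (50 mM) with ovalbumin, ATP-MgCl2, DTT / Times: preincubation 30 min, reaction 25 min, room temperature / Technique: AMC fluorescence from Ub-AMC cleavage, excitation 355 nm, emission 460 nm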
Bfl-1 A1 inh – inhibitors of the anti-apoptotic protein A1, read as caspase activation; MEF A1-2A-BIM cells, Caspase-Glo 3/7 luminescence, 3 h; percent of clofoctol response, vehicle zero; caspase activation, % (test concentration not listed); 330,000 compounds, 0.066% hits;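 active means over half of replicate activation scores above 10%, or exactly half above 10 with the replicate mean above 10; inconclusive means replicate mean below 10 yet half the replicates above 10; inactive means over half of replicates below 10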;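 further: wells of about 30 µL received 50 nL stock; many hits fall short of the cut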
Numbers without * were called inactive; i = inactive; u = inconclusive; x = no result given. Outcome played no part in choosing rows. Share with any hit: about 4.3%.

SMILES	Calb FLC	Beta2AR agonist	RanGTP-Impb inh	LANA-H2B inh	Beta cell apopt	T cruzi repl	UCH37 DUB inh	Bfl-1 A1 inh
NC(=S)N/N=C/c1ccc(-c2cc(Cl)cc(Cl)c2)o1	u	5	0.8	-1.2	-2	59*	x	0.3
O=C(NCC1CC1)c1ccc2c3n(nc2c1)-c1ccc(Cl)cc1CO3	33	-14	-3.3	0.6	6	24	-0.1	-1.8
CC1CCCN(C(=S)Nc2ccc(S(=O)(=O)N3CCCCC3)cc2)C1 (stereo not given)	-24	2	1.4	0.3	-7	x	2.6	0.3
CCOC(=O)C1CCN(C(=O)COC(=O)CNC(=O)c2ccc(OC)cc2)CC1	-2	12	1.7	1.0	-3	1	3.1	0.2
CCN(CC)S(=O)(=O)c1ccc(NC(=O)CCNC(=O)c2ccco2)cc1	0	3	2.1	-3.2	-13	-9	4.5	-0.8
C/C(=N\NC(=O)c1ccco1)c1ccc(NC(=O)C(F)(F)F)cc1	-8	-3	3.2	x	x	-6	x	x
CC(C)(C)C(=O)OCc1cn(-c2ccccc2)nn1	-6	-2	8.6	0.9	-2	-17	4.3	-0.1
Cc1cccc(Nc2c([N+](=O)[O-])ccc3nonc23)c1	7	-3	-5.1	-1.5	2	-5	5.9	-0.1
COc1ccc(C(=O)NNC(=O)CCC(=O)Nc2ccc(C)cc2C)cc1	1	0	0.0	-3.1	x	1	2.8	-0.2
C/C(=N\O)C1(C)N(O)C(C)(C)C(c2ccc(Br)cc2)=[N+]1[O-] (stereo not given)	-6	5	-6.0	-0.2	2	-1	x	0.2
C=CCC[C@H](Cc1ccc(F)cc1)C(=O)OC[C@@H](C)NC(=O)[C@@H](CC=C)CC(=O)N[C@@H](CO)Cc1ccccc1	x	9	x	-246	-4	x	0.7	-0.1
O=C(CN1C(=O)NC2(CCCCCC2)C1=O)c1cccs1	x	3	x	7.2	-2	x	5.7	-0.2
Cc1cc(NC(=O)CCOc2ccccc2)no1	-1	-1	8.8	i	-4	-2	-1.3	0.0
COc1ccc(N2CC(O)=C(c3nc(-c4ccc(F)cc4)cs3)C2=N)cc1	18	0	-0.4	3.4	-2	7	0.1	-0.5
CC1(c2cc(C(F)(F)F)n3nc(C(=O)O)cc3n2)CC1	-11	3	-2.5	5.6	-2	-15	3.6	0.5
CCNC(=S)Nc1cc(OC)c(NC(=O)c2ccco2)cc1OC	3	0	3.5	5.4	x	0	4.5	1.8
CCCn1c2ccccc2c2nnc(SCC(=O)Nc3ncccn3)nc21	u	-1	5.1	-0.4	-2	-4	10	0.9
COC(=O)CCN1CCN(S(=O)(=O)c2ccc3c(c2)OCCO3)CC1	x	0	x	4.4	-6	x	0.9	-1.4
CCc1ccc(C(=O)/C=C/c2cnn(C)c2C)s1	9	-1	u	2.6	-9	-1	-64	0.2
COCCN1C(=O)c2ccccc2C(C(=O)Nc2ccc3c(c2)OCCO3)C1c1ccc(F)cc1 (stereo not given)	-1	4	-2.1	-0.1	4	0	1.9	0.1
COc1ccc(CC(=O)Nc2ccc(S(=O)(=O)Nc3ncccn3)cc2)cc1OC	0	4	3.7	1.8	-3	6	2.6	0.8
COC(=O)c1ccccc1SCC(=O)Nc1ccc(N2CCOCC2)cc1	-6	13	2.0	-6.3	-8	7	0.8	-0.1
Cc1ccc(-c2nc3ccsc3c(=O)[nH]2)cc1	1	-7	6.3	7.7	x	-24	-1.4	-9.2
O=C(COC(=O)Cc1ccc(Cl)cc1Cl)NC1CC1	x	-2	x	0.7	-7	x	3.0	0.2
O=C(NCC1CCCC(CNC(=O)Nc2ccc(Cl)cn2)C1)Nc1ccc(Cl)cn1 (stereo not given)	11	-10	-0.2	-0.2	29	60*	-0.4	1.1
CC(C)C(c1nnnn1C1CCCC1)N1CCN(C(=O)c2ccco2)CC1 (stereo not given)	5	-3	0.4	2.1	-1	-3	3.2	-0.1
CCCCCCn1c(Br)nc2c1c(=O)n(C)c(=O)n2C	-2	-10	2.6	-7.9	4	13	1.7	-0.8
O=C1CCCN1CCCNC(=S)Nc1ccccc1Cl	1	21	-1.1	-1.5	-4	-9	0.2	-0.4
O=C(Nc1ccc(-c2cscn2)cc1)C1CCCN(Cc2ccccc2)C1 (stereo not given)	-9	-1	5.5	0.3	1	20	0.2	0.1
COc1ccccc1-n1c(CNC(=O)c2ccccc2)nnc1SCC(=O)Nc1nnc(C)s1	x	-5	x	-0.7	-6	x	5.5	0.0
Cc1ccc(NC2CCCN(C(=O)CCC3(C)CC3)C2)cc1C (stereo not given)	-1	1	0.1	-3.5	5	u	1.3	-0.9
CCC(C)NS(=O)(=O)c1cccs1 (stereo not given)	-2	0	-3.1	-5.1	-4	-4	4.1	0.2
CCOC(=O)NC(=S)c1ccc[nH]1	3	-2	1.9	2.0	-4	-2	11	-1.1
O=C(O)c1ccc(N2C(=O)c3cccnc3C2=O)cc1	8	-2	0.5	6.3	-3	-8	1.5	-1.4
CC(C)N=c1scc(-c2ccco2)n1/N=C/c1ccc(O)c(O)c1	x	1	x	5.3	11	x	x	3.4
c1ccc(CC2CNc3ccccc3CN2)cc1 (stereo not given)	-14	1	-2.5	-2.8	6	4	-0.4	-0.7
CC(C)Cn1c(N)c(C(=O)COC(=O)c2cnc(Cl)c(Cl)c2)c(=O)n(C)c1=O	8	13	-76	0.0	0	-1	4.2	-0.5
CC1(OC(=O)C2CCCC2)C(=O)C=C2C=C(c3ccsc3)N(C3CCCCC3)C=C2C1=O (stereo not given)	3	-7	-6.4	1.5	1	29	2.9	1.1
CCS(=O)(=O)N1Cc2ccccc2CC1C(=O)Nc1cccc(S(=O)(=O)N(C)C)c1 (stereo not given)	1	6	5.4	0.1	-3	-1	2.8	1.7
Cc1ccc(Cl)cc1NC(=O)C(Cc1ccccc1)N1C(=O)C2C3CCC(C3)C2C1=O (stereo not given)	26	9	0.2	-1.6	1	5	0.9	-0.7
O=C(Nc1ccc2ccccc2c1)c1ccc(NS(=O)(=O)c2ccc(Br)s2)cc1	2	11	4.6	4.0	7	-7	-3.3	-0.7
CCN(C(=O)COC(=O)c1cc(OC)ccc1Br)C1CCS(=O)(=O)C1 (stereo not given)	x	6	x	-5.0	-4	x	0.6	0.2
O=C(C1CCN(S(=O)(=O)c2cccs2)CC1)N1CCCCCC1	11	1	12	0.3	2	-4	5.4	-0.2
COc1ccc(C(=O)N2CCCCC2C(=O)Nc2ccc(-n3nc(C)cc3C)cc2)o1 (stereo not given)	-3	1	0.0	-3.1	1	5	1.8	0.1
COc1cc(NS(=O)(=O)c2ccc(NC(=O)CN3C(=O)c4ccccc4C3=O)cc2)ncn1	33	1	3.6	2.0	-17	-13	1.5	0.9
CCC(CC)NC(=O)COC(=O)c1cc(Br)ccc1Cl	7	-30	-4.0	0.1	-2	-6	0.6	1.7
CC(=O)N(CCc1cccc(C)c1)Cc1cc2cc(C)ccc2[nH]c1=O	4	12	6.8	-0.8	x	15	-7.3	-1.8
CN1C(=O)/C(=C/c2ccc(C(F)(F)F)cc2)Sc2ccc(C(=O)N3CCN(c4ccccn4)CC3)cc21	-9	-2	5.9	4.5	42	44	-1.4	1.0
Cc1cccc(C)c1NC(=O)CSCCO	1	-1	-3.5	1.3	-3	1	5.6	-0.5
COc1ccccc1NS(=O)(=O)c1ccc(C(=O)NCC(c2ccc(F)cc2)N2CCOCC2)cc1 (stereo not given)	x	13	x	-6.6	-3	x	x	0.3
Cc1cc(NC(=O)Nc2ccc(Cl)c(Cl)c2)n(-c2ccccc2)n1	-9	15	-0.9	-0.1	-7	16	4.1	1.1
CCC(CO)Oc1cc(NCc2cccc(C)c2)c2ncn(C(C)C)c2c1 (stereo not given)	x	-9	x	1.7	-7	x	4.9	-0.9
CCOc1cc(CNS(=O)(=O)c2ccc3c(c2)CC(=O)N3C)cc(OCC)c1OCC	-6	-8	-1.0	1.6	-10	4	6.7	-0.2
O=C(NC1CCC(NC(=O)C(F)(F)C(F)F)CC1)C(F)(F)C(F)F (stereo not given)	-6	4	-1.9	0.8	-6	-12	5.2	-0.8
COc1ccc(CNCC(O)(c2ccccc2)c2ccccc2)cc1	-8	12	-1.3	2.1	3	14	-0.7	0.4
Cc1ccc(S(=O)(=O)c2ccc([N+](=O)[O-])cn2)cc1	-6	65*	2.9	0.3	105*	67*	11	-1.7
Cc1ccc2[nH]c(=O)c3cc(C(=O)N(CCCOC(C)C)Cc4ccco4)sc3c2c1	9	14	-4.0	-4.3	-1	28	-49	-1.4
O=c1[nH]c(=O)n(CCO)c2nnn(Cc3ccccc3)c12	x	0	2.0	4.1	0	3	1.2	-0.8
Cc1ccc(SCC(=O)Nc2cccc(NC(=O)c3ccco3)c2)cc1	2	-4	0.9	1.9	-5	-4	-4.6	-1.7
COc1ccccc1/C=C/CN1CCN(c2ccccc2)CC1	-13	-1	3.6	0.7	6	6	3.3	-0.5

Quoted at random: two compounds from above
SMILES	Calb FLC	Beta2AR agonist	RanGTP-Impb inh	LANA-H2B inh	Beta cell apopt	T cruzi repl	UCH37 DUB inh	Bfl-1 A1 inh
COc1ccccc1NS(=O)(=O)c1ccc(C(=O)NCC(c2ccc(F)cc2)N2CCOCC2)cc1 (stereo not given)	x	13	x	-6.6	-3	x	x	0.3
CCC(CO)Oc1cc(NCc2cccc(C)c2)c2ncn(C(C)C)c2c1 (stereo not given)	x	-9	x	1.7	-7	x	4.9	-0.9

Further results
SMILES	Calb FLC	Beta2AR agonist	RanGTP-Impb inh	LANA-H2B inh	Beta cell apopt	T cruzi repl	UCH37 DUB inh	Bfl-1 A1 inh
CCOC(=O)C1C(=O)C=C(c2cccs2)CC1c1ccccc1 (stereo not given)	12	4	3.4	-0.6	4	0	3.0	0.8
Brc1ccc(-c2csc(N/N=C/c3ccco3)n2)cc1	30	4	-3.2	6.2	0	x	x	0.7
CCOc1cc(/C=N/Nc2ncc(C)c(=O)[nH]2)ccc1O	4	1	6.8	-2.4	4	1	x	1.6
CN(C)CC(O)COC(c1ccc(Cl)cc1)c1ccc(Cl)cc1 (stereo not given)	-2	13	1.4	0.5	1	23	6.1	0.8
CCCc1cc(=O)n2[nH]c(CCc3ccccc3)nc2n1	-12	2	-0.3	-0.1	-2	1	0.4	-0.2
O=C(Nc1ccc(Br)cn1)c1cccc2c1-c1ccccc1C2=O	-11	-1	4.2	1.8	x	20	-0.4	3.7
CCOc1ccc2[nH]c(C)c(CN3CCCCC3)c(=O)c2c1	u	5	4.5	3.1	-3	-5	-39	0.4
COc1cc(OC)c(C2C(C(=O)Nc3ccccc3)=C(C)Nc3ncnn32)cc1OC (stereo not given)	-11	-7	-2.8	-1.2	-7	2	3.6	-0.5
O=C(COc1ccccc1)N=C1SC2CS(=O)(=O)CC2N1c1ccccc1 (stereo not given)	-3	-4	1.4	5.0	0	15	2.3	0.1
COc1ccc(N2CC(C(=O)N3CCN(Cc4ccc5c(c4)OCO5)CC3)CC2=O)cc1 (stereo not given)	1	3	1.1	-1.1	x	7	3.1	-0.5
O=C(C1=C(O)C(=O)N(Cc2ccccc2)C1c1ccco1)c1ccco1 (stereo not given)	4	-5	5.9	-1.0	-6	-2	1.0	-0.8
